CDC25B CDK2 inh: primary biochemical HTRF screen for blockers of M-phase inducer phosphatase 2 binding to CDK2/cyclin A | HTRF CDC25B-CDK2/CyclinA binding, anti-His/anti-Flag; hits give high values | P30305+P24941 | z-score (no concentration beside the values) | 94,000 compounds, 0.72% hits;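 also: score is relative to mean and SD of negative controls; strong numbers were not always called active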
TAR Tat displ: TAR RNA-Tat peptide displacers, HIV-1, primary screen, biochemical, FRET, FAM/TAMRA-labeled Tat; HIV-1 TAR RNA, Tat peptide displacement FRET; hits give high values; 100,000 compounds, 0.6% hits; z-score (no concentration beside the values);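 also: score is relative to mean and SD of negative controls; some compounds called inactive have numbers as strong as hits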
* = called active by the depositor; . = no result given.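 The calls were made as follows: active = z-score from 3 up in half or more of its runs; inactive = the rest.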

Molecule	CDC25B CDK2 inh	TAR Tat displ
Cc1ccc(Cn2ncn3c(cc4ccccc43)c2=O)cc1	-0.75	1.7
CC(C)Oc1ccccc1C1CC(=O)NC2=C1C(=O)CC(C)(C)C2 (centres undefined)	-0.18	1.7
Fc1cccc(-c2nn3c(Cn4nnc5ccccc54)nnc3s2)c1	-1.6	0.57
Cc1cn2c(=O)cc(COC(=O)COc3ccc(C)c(C)c3)nc2s1	.	0.07
CCCCN1C(=O)c2ccc(-c3ccco3)n2CC1(C)C(=O)NC1CCCC1 (centres undefined)	.	-6.5
Cn1ncc(C(N)=O)c1[N+](=O)[O-]	-1.1	.
N#CCCN1CCCN(CCC#N)CCN(CCC#N)CCCN(CCC#N)CC1	-1.7	.
CNC(=O)c1c(NC(=O)c2ccc3c(c2)OCCO3)sc2c1CCCCC2	.	1.1
CC(C)Sc1ncc(Cl)c(C(=O)N(Cc2ccco2)C2CCS(=O)(=O)C2)n1 (centres undefined)	1.2	0.65
O=C(NCCc1c[nH]c2ccccc12)C1CCCN(c2nc3cccnc3s2)C1 (centres undefined)	.	0.19
CCOC(=O)N1CCN(C(=O)CSc2nc3c(cnn3-c3ccc(Cl)cc3)c(=O)[nH]2)CC1	.	1.4
COc1ccc(C2CC(c3ccccc3)=NN2c2nc(C)cs2)cc1 (centres undefined)	1.8	-0.17
Cc1ccccc1CNc1nc(NCc2ccccc2)nc2c1cnn2C	.	0.91
O=c1[nH]c2c(s1)C(c1cccnc1)C1C3CCC(C3)C1S2 (centres undefined)	-0.65	1.4
CC1CCN(c2c(NCC3CCC(C(=O)NCc4ccc5c(c4)OCO5)CC3)c(=O)c2=O)CC1 (centres undefined)	-0.94	3.4

3 structures already listed, ordered by SMILES length, highest first:
Molecule	CDC25B CDK2 inh	TAR Tat displ
CC(C)Oc1ccccc1C1CC(=O)NC2=C1C(=O)CC(C)(C)C2 (centres undefined)	-0.18	1.7
Cc1ccccc1CNc1nc(NCc2ccccc2)nc2c1cnn2C	.	0.91
Cc1ccc(Cn2ncn3c(cc4ccccc43)c2=O)cc1	-0.75	1.7

An excerpt of these results, field by field.
> N#CCCN1CCCN(CCC#N)CCN(CCC#N)CCCN(CCC#N)CC1
  CDC25B CDK2 inh: -1.7	TAR Tat displ: .

> CNC(=O)c1c(NC(=O)c2ccc3c(c2)OCCO3)sc2c1CCCCC2
  CDC25B CDK2 inh: .	TAR Tat displ: 1.1

> CC(C)Sc1ncc(Cl)c(C(=O)N(Cc2ccco2)C2CCS(=O)(=O)C2)n1 (centres undefined)
  CDC25B CDK2 inh: 1.2	TAR Tat displ: 0.65

> O=C(NCCc1c[nH]c2ccccc12)C1CCCN(c2nc3cccnc3s2)C1 (centres undefined)
  CDC25B CDK2 inh: .	TAR Tat displ: 0.19

A few values from the entries so far:
CNC(=O)c1c(NC(=O)c2ccc3c(c2)OCCO3)sc2c1CCCCC2 @ TAR Tat displ = 1.1
O=C(NCCc1c[nH]c2ccccc12)C1CCCN(c2nc3cccnc3s2)C1 (centres undefined) @ TAR Tat displ = 0.19
Cc1ccc(Cn2ncn3c(cc4ccccc43)c2=O)cc1 @ CDC25B CDK2 inh = -0.75
CCOC(=O)N1CCN(C(=O)CSc2nc3c(cnn3-c3ccc(Cl)cc3)c(=O)[nH]2)CC1 @ TAR Tat displ = 1.4

(list continues)
Molecule	CDC25B CDK2 inh	TAR Tat displ
NC(=O)CCCc1nc(-c2cccs2)no1	-0.63	0.21
O=C(CCCN1C(=O)c2cccnc2Oc2ccc(Cl)cc21)NCc1cccs1	.	2.7
Cc1nnsc1C(=O)Nc1sc2c(c1C(=O)NC1CCS(=O)(=O)C1)CCC2 (centres undefined)	-1.3	1.4
CC(C)COC(=O)c1ccc(N2CC(O)=C(c3nc4ccccc4s3)C2=N)cc1	-1.8	0.2
CCOC(=O)c1c(C)[nH]c(C)c1S(=O)(=O)Nc1cc(F)ccc1F	.	-1
O=C(Nc1nc2ccccc2s1)NC1CC(=O)N(c2ccc(F)cc2)C1 (centres undefined)	.	2
COc1ccc(NS(=O)(=O)c2cccc3cccnc23)cc1Cl	-0.63	.
CC(=O)Nc1ccc(NC(=O)CSc2ncnc3ccccc23)cc1	-0.93	.
Cc1cc(S(=O)(=O)NCCc2csc3nc(-c4ccc(F)cc4)nn23)ccc1F	.	0.89
O=C(Nc1cc(F)ccc1F)c1cncc(NS(=O)(=O)c2ccc(Br)cc2)c1	.	0.5
COc1ccc(-c2cc(N)n(S(=O)(=O)c3ccc(Cl)cc3)n2)cc1OC	-1.1	-0.81
Cc1cc(OCc2cc(=O)n3c(-c4ccccc4)csc3n2)ccc1Cl	-3.7	0.64
Cn1nnc2sc3c(c2c1=O)CCC(C(C)(C)C)C3 (centres undefined)	-1.8	1.7
CC1=C(C(=O)OCC2CCCO2)C(c2coc3ccc(C)cc3c2=O)C2=C(CC(C)(C)CC2=O)N1 (centres undefined)	-1.1	2.4
Cc1c(NS(=O)(=O)c2ccc(Cl)cc2)c(=O)n(-c2ccccc2)n1C	-4.1	0.6

More structures follow:
Molecule	CDC25B CDK2 inh	TAR Tat displ
COc1ccc(S(=O)(=O)NCC(c2ccco2)N2CCN(c3ccc(F)cc3)CC2)cc1 (centres undefined)	.	1.5
CN(Cc1ccco1)C(=O)CS(=O)(=O)c1cccc2nsnc12	.	0.56
CCCCOC(=O)COc1ccc2c(=O)c(Oc3ccccc3Br)coc2c1	-2.9	-0.76
O=C1CCN(C(=O)c2ccco2)c2ccccc2N1	-1.3	1
COc1ccccc1-c1nc(-c2ccc(Br)cc2)no1	-0.79	-2.2
Cc1[nH]c(C)c(S(=O)(=O)N2CCC(C(=O)Nc3nccs3)CC2)c1C(=O)N1CCCCC1	.	-0.44
Clc1cccc(CSc2ncc3ccccn23)c1	.	-2.9
CCC(C)NS(=O)(=O)c1ccc2c(c1)NC(=O)C(C)C(=O)N2 (centres undefined)	-1.4	.
O=C(NCCCN1CCCCC1)c1cnc2sccn2c1=O	.	1.3
COc1ccc(OCC(=O)N/N=C2\CCSC2)cc1	-0.78	.
CC1CCN(C(=O)c2nn(C)c3c2CCc2sccc2-3)CC1	.	-0.81
COc1ccc(F)cc1S(=O)(=O)Nc1ccc(-c2ccc(S(C)(=O)=O)nn2)cc1	.	-0.18
Cc1ccc(OCC(=O)Nc2nnc(SCc3cc(=O)n4oc(C)cc4n3)s2)cc1	.	1.6
Nc1c(-c2nc(-c3ccc(Br)cc3)no2)nnn1-c1ccc(F)cc1F	.	-1.2
CCN1CCN(CCCNC(=O)C2=Cc3sc4c(c3CS2)CCCC4)CC1	.	-1.9

(cont.)
Molecule	CDC25B CDK2 inh	TAR Tat displ
COc1ccc(OC)c(Nc2cc(-c3ccc(C)cc3)nc(C)n2)c1	0.55	-1.4
CCC(=O)N1CCc2cc(Br)cc(S(=O)(=O)NCCCN(CC)CC)c21	0.09	.
N#Cc1ccc(CO/N=C(\N)c2ccc(Cl)cc2)cc1	-0.43	.
Cc1cccc(Nc2nc3ccccc3c3nnc(C)n23)c1	-2	1.2
Cc1cc(NNC(=O)C(c2ccccc2)c2ccccc2)c2ccc(C)c(C)c2n1	1.6	.
Cc1cc(C)cc(S(=O)(=O)c2cn(C)c3cc(N4CCOCC4)c(F)cc3c2=O)c1	.	-0.68
CCOC(=O)Cn1cc(Br)c(=O)[nH]c1=O	-3	-0.78
O=C(Cn1cc2c(n1)CCCC2)N1CCCC1	-1.4	.
CCCC(O)c1nc2ccccc2n1C (centres undefined)	-1.6	2.1
Cn1c(C(=O)O)cc2c(=O)oc3ccccc3c21	0.85	-0.11
CCOc1cc(/C=C2\SC(=Nc3cccc(Cl)c3C)NC2=O)ccc1O	0.82	.
COc1ccc(-n2cnc3nc(C)c(C(C)=O)c(-c4ccccc4)c32)cc1	-1.5	.
CC1(C)Cc2cccc(C(=O)N3CCC(c4c[nH]c5ccccc45)CC3)c2O1	-2.5	.
Cc1cc2[nH]c(=O)[nH]c2cc1S(=O)(=O)N1CCc2ccccc2C1	.	-0.04
Cc1cc(-c2ccc(C)c(S(=O)(=O)NCc3cccnc3)c2)on1	.	0.25

New compounds follow:
Molecule	CDC25B CDK2 inh	TAR Tat displ
O=C(/C=C/c1ccc(-c2ccccc2[N+](=O)[O-])o1)Nc1cc(Cl)c(Cl)cc1Cl	3.7*	.
Cc1ccc(CN2C(=O)CN(C3CCC(C)CC3)C(=O)C2c2ccc(F)cc2)cc1 (centres undefined)	-1.9	.
O=C(Nc1nnn(-c2ccc([N+](=O)[O-])cc2)c1-c1ccccc1)N1CCOCC1	-1.3	.
C=CCSc1ncc(Cl)c(C(=O)Nc2nc3ccc(F)cc3s2)n1	-1.9	2.1
CCn1nc(-n2cnnc2)c(NS(=O)(=O)c2ccc(C)cc2C)c1C	1.1	0.24
Cc1cccc(-c2noc(NC(=O)O/N=C/c3ccccc3)n2)c1	-0.45	.
CCCn1c(SCc2nc(-c3ccc(C)cc3)no2)nnc1-c1ccncc1	-1.7	0.32
COc1ccc(OCCNC(=O)c2c(F)cccc2Cl)cc1	-0.12	.
Oc1ccccc1Nc1nc(-c2cccnc2)nc2ccccc12	0.57	-1.3
CS(=O)(=O)N1CCCc2cc(C(=O)NC3CCCCC3)ccc21	1.9	1.7
CCCOc1ccc2nc(NC(=O)OC)sc2c1	-0.42	1.3
Cc1csc2ncc(C(=O)NCCc3cccs3)c(=O)n12	.	0.68
Cc1csc2ncnc(NCCc3ccc(Cl)cc3)c12	-0.67	.
CCOC(=O)c1ccc(N2C(=O)[C@@H]3CSC(c4ccc(OC)cc4)N3C2=S)cc1 (some centres undefined)	-2.4	.
O=C(CN1C(=O)c2ccccc2S1(=O)=O)Nc1ccc(F)c(Cl)c1	-1.7	0.29

Other entries:
Molecule	CDC25B CDK2 inh	TAR Tat displ
COc1cc(NC(=O)c2cc(S(=O)(=O)N3CCc4ccccc43)cn2C)cc(OC)c1	.	1
CCN1CCCC1CNC(=O)C(=O)Nc1ccc2nc3n(c(=O)c2c1)CCCCC3 (centres undefined)	-1.1	.
O=C(O)c1ccc(S(=O)(=O)c2ccc3c(c2)C(=O)N(Cc2ccccc2)C3=O)cc1	-1.6	.
CCOC(=O)C1C(=O)CC(C)(O)C(C(=O)OCC)C1c1ccc(F)cc1 (centres undefined)	.	1.5
CCN1C(=O)c2cc(C(=O)NCCCN3CCOCC3)nn2CC1(C)C(=O)NC1CCCC1 (centres undefined)	.	-1.6
CCOC(=O)c1c(NC(=O)c2cccc(-n3cnnc3)n2)sc2c1CCCC2	.	0.9
Cc1cc(C)cc(N2C(=O)N(Cc3ccc(Br)cc3F)C3CS(=O)(=O)CC32)c1 (centres undefined)	-0.74	1.4
Cc1nc(C)c(NC(=O)Nc2ccccc2)cc1NC(=O)Nc1ccccc1	2.1	4.5
CCCCCOc1ccc(C2C(C(=O)OCC)=C(C)N=C3SCCC(=O)N32)cc1OC (centres undefined)	-0.43	1.4
NC(=O)C1(N2CCCCC2)CCN(c2c(-c3ccccc3)c(=O)c2=O)CC1	.	-0.11
CC(C)(C)c1ccc2c(c1)NC(=O)CO2	-0.88	.
CCOC(=O)c1oc2ccc(S(=O)(=O)N3CCCC3c3cc(C)on3)cc2c1C (centres undefined)	.	0.99
O=C(CN1C(=O)CSc2ccc(S(=O)(=O)N3CCCC3)cc21)NCCC1=CCCCC1	.	-0.06
CC1CC(Nc2ccccc2)c2ccccc2N1S(=O)(=O)c1ccc(Br)cc1 (centres undefined)	0.33	-2.3
Cc1ccc(Oc2c([N+](=O)[O-])cc(C(F)(F)F)cc2[N+](=O)[O-])cc1	-1.5	.

(listing goes on)
Molecule	CDC25B CDK2 inh	TAR Tat displ
Cc1cc(NC(=O)CSc2nc3ccccc3c(=O)n2CCC(=O)N2CCCCC2)n[nH]1	-3.3	.
CCCCC12CN3CC(C)(CN(C1)C3c1ccc(F)cc1)C2=O (centres undefined)	-2	0.97
O=S(=O)(NCC(c1ccccc1)N1CCc2ccccc21)c1ccccc1 (centres undefined)	-0.14	0.58
CN(Cc1cnn(-c2ccccc2)c1)S(=O)(=O)c1ccc(-c2cc(C(F)(F)F)on2)s1	.	0.87
CNS(=O)(=O)c1cn(CC(=O)N2CCN(C3CCCC3)CC2)cc1S(=O)(=O)NC	.	0.4
CN1C[C@H](C(=O)N[C@]2(C)O[C@@]3(O)[C@@H]4CCCN4C(=O)[C@H](Cc4ccccc4)N3C2=O)C[C@@H]2c3cccc4[nH]cc(c34)C[C@H]21	-0.43	-0.23
Nc1c(-c2nc(-c3ccccc3F)no2)nnn1-c1cccc(Cl)c1	.	0.77
O=C(c1cc(F)c(F)cc1Cl)N1CCN(c2ccc([N+](=O)[O-])c(N3CCCC3)c2)CC1	-4.5	.
CC(C)CCNC(=O)c1cnc2sc(N3CCCCC3)nn2c1=O	.	1.6
Cc1onc(-c2c(Cl)cccc2Cl)c1CO	-0.64	.
CCCCC(CC)CNC(=O)C1C2C=CC(O2)C1C(=O)O (centres undefined)	-0.8	-0.16
CS/C(=N\S(=O)(=O)c1ccccc1)N1CCCC1	-0.03	.
OCCCCNc1ncnc2sc3c(c12)CCCC3	-0.17	.
Cn1nc(C(=O)N2CCC(C(N)=O)CC2)c2c1-c1ccccc1SC2	-0.92	-0.13
CC1=C/C(=N\N=C2\NC(=O)C(CC(=O)Nc3cccc(Cl)c3Cl)S2)CC(C)(C)C1 (centres undefined)	-0.89	.

Carrying on.
Molecule	CDC25B CDK2 inh	TAR Tat displ
Cc1nn(CCCC(=O)NCCN2CCCC2)c(=O)c2c1sc1ccccc12	-2.4	0.43
CN(Cc1ccccc1)Cc1cc(=O)n2nc(C3CC3)sc2n1	.	-0.09
Cc1ccc(S(=O)(=O)c2cnc3ccc(F)cc3c2N2CCCC2)cc1	-0.26	1.1
Cc1nc(SCc2ccccc2)c2sc3nc4c(cc3c2n1)COC(C)(C)C4	.	0.1
COC(=O)c1ccc(Cn2c(SCc3ccccc3F)nc3ccncc32)cc1	-1.4	-0.25
CCOC(=O)COc1cccc([N+](=O)[O-])c1	-1.3	.
CC(C(=O)O)N1C(=O)CCSc2ccccc21 (centres undefined)	0.03	1.1

Bioassay records deposited in PubChem by Center for Chemical Genomics, University of Michigan.

Outcome played no part in choosing rows, and some 0.87% of all compounds hit somewhere here.
